PKD1 inh: inhibitors of human PKD1 kinase, biochemical, fluorescence polarization | inhibition, %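 (about 10 µM by stock and volumes)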 | PKD1 kinase fluorescence polarization assay | 200,000 tested, 0.056% active | AID 797, 2007 | Serine/threonine-protein kinase D1 (Homo sapiens), Q15139;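 active = inhibition of 50% or more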;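 note: controls were vehicle for no effect and a reference inhibitor for full effect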
INS promoter inh: inhibitors of insulin promoter-driven GFP, primary screen, imaging, TRM-6 cells (human fetal islet line), eGFP reporter, cell count | reporter expression induced with tamoxifen | inhibition, % at 2 µM | 130,000 tested, 0.9% active | AID 1273, 2008;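 active = inhibition above the mean plus 3 SD, with well images judged a real hit on visual review, cut at about 60% in these data, passing the limit was not always enough; inconclusive = inhibition over the cutoff but images rejected on review; inactive = inhibition not above the cutoff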
HSV augment: enhancers of HSV replication in host cells, fold increase, host cell viability | AID 1956, 2009 | 220,000 tested, 0.005% active | HSV replication augmentation in cells | maximum fold increase;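 active = peak rise of 1.5-fold or more in the series; inconclusive = self-fluorescent or not available for retest; tested in PC3 cells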;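 note: first round at 10 µM; read as green reporter fluorescence; hits show the peak of a series up to 25 µM; 1 = signal of infected wells without compound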
GALR2 agonist: GALR2 receptor agonists, primary screen, cell-based. Galanin receptor type 2 (Homo sapiens), O43603. GALR2-expressing cells, agonist activation read-out. activation, %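 (tested at 5 µM)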. 140,000 tested, 0.48% active. AID 803, 2007;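 active = above mean plus 3 SD of all compounds, about 5% in these data, not always enough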;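 note: 0% = vehicle buffer wells and 100% = reference agonist at full effect; tested in CHO reporter cells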
Target sequence (O43603 whole entry, looked up): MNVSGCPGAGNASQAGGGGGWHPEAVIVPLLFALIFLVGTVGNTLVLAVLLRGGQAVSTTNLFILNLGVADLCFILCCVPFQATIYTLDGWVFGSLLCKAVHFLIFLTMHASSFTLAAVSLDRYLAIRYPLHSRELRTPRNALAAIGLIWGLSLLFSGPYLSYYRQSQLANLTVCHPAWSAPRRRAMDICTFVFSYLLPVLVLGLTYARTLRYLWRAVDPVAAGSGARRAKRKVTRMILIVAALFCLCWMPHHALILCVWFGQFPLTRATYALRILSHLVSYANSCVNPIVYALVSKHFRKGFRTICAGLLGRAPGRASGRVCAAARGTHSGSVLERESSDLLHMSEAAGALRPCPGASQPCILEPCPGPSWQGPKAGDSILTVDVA
RGS16-Gao: modulators of RGS16 binding to Galphao, primary screen, biochemical, human proteins, multiplexed bead flow cytometry | bead-based flow cytometry RGS16-Galphao binding, fluorescence; actives lie on both sides | AID 1441, 2008 | Regulator of G-protein signaling 16 (Homo sapiens) + Guanine nucleotide-binding protein … | binding response (% of control), % at 10 µM | 220,000 tested, 0.38% active;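 active = below 25% or above 175%, edge rows of some plates excepted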;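 note: Galphao activated by GDP with aluminum fluoride before binding; 100% = wells without compound and 0% = beads without RGS; some results beyond the cut were filed as inactive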
Target sequence (O15492 whole entry, looked up): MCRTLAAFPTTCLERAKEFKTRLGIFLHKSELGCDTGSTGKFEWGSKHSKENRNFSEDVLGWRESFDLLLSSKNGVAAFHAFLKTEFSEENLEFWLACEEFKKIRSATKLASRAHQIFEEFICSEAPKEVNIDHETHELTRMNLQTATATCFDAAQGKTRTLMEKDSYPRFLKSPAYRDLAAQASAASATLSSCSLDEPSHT
Target sequence (P09471 whole entry, looked up): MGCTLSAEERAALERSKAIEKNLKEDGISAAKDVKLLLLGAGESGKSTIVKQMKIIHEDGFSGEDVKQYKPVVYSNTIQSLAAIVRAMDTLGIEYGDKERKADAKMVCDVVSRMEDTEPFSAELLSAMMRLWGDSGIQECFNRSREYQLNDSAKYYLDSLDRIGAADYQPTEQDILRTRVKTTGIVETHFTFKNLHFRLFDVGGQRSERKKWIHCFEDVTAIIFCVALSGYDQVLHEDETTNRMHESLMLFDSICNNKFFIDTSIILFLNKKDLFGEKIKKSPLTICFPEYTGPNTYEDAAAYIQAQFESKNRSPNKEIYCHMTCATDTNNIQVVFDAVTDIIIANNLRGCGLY
INS promoter inh cell count: further read-out of INS promoter inh, marked with its call; normalized cell count, %; measured here: cell count, toxicity; reference of the scale not given here;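 cells exposed to compound for 48 h; stained nuclei by imaging scaled within each plate; lower means fewer cells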
HSV augment primary fold: second read-out of HSV augment, no call of its own (marks repeat the call); fold increase; compound at 10 µM; measured here: primary screen fold increase 10 uM; tested in PC3 cells;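 GFP signal in the first replicate; 1 = infected wells without compound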
An asterisk follows results filed as active; i = inactive; ? = inconclusive; / = no result given.

SMILES	PKD1 inh	INS promoter inh	INS promoter inh cell count	HSV augment	HSV augment primary fold	GALR2 agonist	RGS16-Gao
COc1ccc(OC)c2sc(NC(=O)C3=COCCO3)nc12	-8	/	/	i	0.79	-3.2	102
C=CCNC(=S)NNC(=O)c1csc(CC)c1	-3	30	108	i	1	0.0	108
C/C(N)=C(/C#N)C(=O)CSc1nn(-c2ccc(Cl)cc2)c(=S)s1	0	-100	77	i	1.1	/	104
Cc1cc(C)nc(SCCCn2c(=O)[nH]c3ccccc32)n1	3	/	/	i	1	-3.1	95
CC(NC(=O)c1ccc(F)cc1)c1ccc2c(c1)CCCC2 (configuration not stated)	7	-23	112	i	0.91	-1.6	100
CC1(C)CC(=O)c2c(nc3ccccc3c2N)C1	0	62	156	i	1.1	-0.7	100
CCOc1cc([N+](=O)[O-])cc2c1C(=O)Nc1ccccc1O2	-8	/	/	?	/	/	103
O=C(CSc1nccn1-c1ccccc1)c1ccc(Br)cc1	-9	-12	27	i	0.89	-0.9	97
Cc1ccc(-c2nnc(Nc3ccc(C(N)=O)cc3)c3ccccc23)cc1S(=O)(=O)NCC1CCCO1 (configuration not stated)	-1	/	/	i	0.85	-1.0	103
COc1ccc(NS(=O)(=O)c2ccc(NC(=O)C(CCSC)NC(N)=O)cc2)cc1 (configuration not stated)	/	/	/	i	0.98	/	95
C=CCc1cc(C=O)cc(OC)c1OCc1ccc(Cl)cc1	-2	-9	113	i	0.93	-0.7	108
O=C(CN1C(=O)C2CCCCC2C1=O)OCn1nnc2ccccc2c1=O (configuration not stated)	2	-12	129	i	1.1	/	103
O=C(NCC(c1cccs1)N1CCOCC1)c1ccccc1NS(=O)(=O)c1cc([N+](=O)[O-])ccc1Cl (configuration not stated)	-6	/	/	i	0.79	-0.1	108
Cc1nonc1NC(=O)Nc1cccnc1	-8	7	91	i	1	-2.1	100
CC(C)(C)c1ccccc1NC(=O)c1ccc2c(c1)SC1=NS(=O)(=O)CCN12	/	/	/	i	0.85	/	99
O=C(c1ccc(Cl)cc1)C1CCCN(Cc2ccc(Oc3ncccn3)cc2)C1 (configuration not stated)	-5	/	/	i	0.98	/	101
CCN(CC)S(=O)(=O)c1cc(NC(=O)C(C)N2CCN(Cc3ccc4c(c3)OCO4)CC2)ccc1C (configuration not stated)	4	-46	117	i	0.82	-0.8	105
O=C(CN1CCN(c2ncccn2)CC1)NCc1ccccc1	-4	14	121	i	0.96	-0.8	83
CCC1=C2CC[C@H]3C(=O)N(c4ccccc4)C(=O)[C@H]3[C@H]2[C@@]2(C)C(=NCc3ccccc3)OC(=O)N2C1=O	/	/	/	i	0.82	/	102
COc1ccc(C(=O)C2CCCN(Cc3cn[nH]c3-c3ccccc3)C2)cc1OC (configuration not stated)	-8	/	/	i	0.9	/	104
Nc1nonc1C(=O)N1CCCCC1	-1	12	87	i	1	/	104
O=S(=O)(Nc1nc2ccccc2nc1NCCO)c1cccc(Cl)c1	12	/	/	i	0.85	-0.7	92
Cc1ccc(Oc2ncccc2COC(=O)Nc2ccccc2C)cc1	-7	-369	75	/	/	/	104
COc1cccc(N2C(=O)CC(N3CCN(C(=O)c4ccco4)CC3)C2=O)c1 (configuration not stated)	-3	11	109	i	1	-1.7	115
Cc1ccccc1CSCCNC(=O)COc1ccc(Cl)cc1	-16	50	135	i	1	-0.3	113
Cc1ccc(SCCNC(=O)c2ccccc2)cc1	2	14	140	i	0.92	-1.9	109
O=C(Oc1cccc(N2C(=O)CCC2=O)c1)C1CC(=O)N(c2ccc(F)cc2)C1 (configuration not stated)	-8	19	62	i	0.78	-1.8	97
COc1ccccc1NC(=O)Nc1ccc2c(c1)nnn2C	-7	28	84	i	0.86	0.3	98
COC(=O)c1ccc(NC(=S)N2CCC(C(N)=O)CC2)cc1	-8	/	/	i	1	-0.2	105
COc1cccc(Cn2nnc(C(=O)Nc3cc(C)ccc3OC)c2N)c1	-4	/	/	i	0.8	-2.6	100

Another view of part of the listing above.
| Structure | PKD1 inh | INS promoter inh | INS promoter inh cell count | HSV augment | HSV augment primary fold | GALR2 agonist | RGS16-Gao |
| --- | --- | --- | --- | --- | --- | --- | --- |
| Cc1ccc(Oc2ncccc2COC(=O)Nc2ccccc2C)cc1 | -7 | -369 | 75 | / | / | / | 104 |
| COc1cccc(N2C(=O)CC(N3CCN(C(=O)c4ccco4)CC3)C2=O)c1 (configuration not stated) | -3 | 11 | 109 | i | 1 | -1.7 | 115 |

4 compounds from above, sorted by the value under GALR2 agonist, lowest first.
structure,GALR2 agonist
COc1cccc(Cn2nnc(C(=O)Nc3cc(C)ccc3OC)c2N)c1,-2.6
COc1cccc(N2C(=O)CC(N3CCN(C(=O)c4ccco4)CC3)C2=O)c1 (configuration not stated),-1.7
Cc1ccccc1CSCCNC(=O)COc1ccc(Cl)cc1,-0.3
COC(=O)c1ccc(NC(=S)N2CCC(C(N)=O)CC2)cc1,-0.2

Continued:
SMILES	PKD1 inh	INS promoter inh	INS promoter inh cell count	HSV augment	HSV augment primary fold	GALR2 agonist	RGS16-Gao
C=CCN(CC=C)CCOc1cccc(Oc2ccccc2)c1	-3	/	/	i	1.1	/	102
O=c1c2c3c(sc2nc2n1CCCCC2)CCC3	-4	-26	92	i	1.1	1.1	105
Cn1nc(Oc2ncc(C(F)(F)F)cc2Cl)cc1C(F)(F)F	-4	/	/	i	0.96	/	99
Cn1c(SCC(=O)c2ccccc2)nnc1C1CC1	4	/	/	i	1	0.9	106
Cc1nc2ccc(S(=O)(=O)Nc3ccccc3C)cc2s1	1	-23	74	i	0.78	-1.4	103
CNC(=S)NNC(=O)c1sccc1OCc1ccc(C)cc1	-4	/	/	i	1	-1.2	102
COc1ccccc1N1CCN(C(=O)CSc2nc(-c3ccccc3)cc(=O)[nH]2)CC1	-6	-7	104	i	1.1	-1.2	103
O=C1/C(=C/c2cccnc2)Oc2cc(OS(=O)(=O)c3ccc(F)cc3)ccc21	0	33	128	i	1	-1.3	99
CN1CCC(N(C)C(=O)COc2ccc(S(=O)(=O)N3CCOCC3)cc2)CC1	0	-12	144	i	0.96	/	97
CC12COC3(C(=O)Nc4ccc5ccccc5c4)CC1CCC32C (configuration not stated)	4	/	/	i	1	/	103
O=C(NNc1cccc(Cl)n1)Nc1cccc(C(F)(F)F)c1	-8	27	123	i	0.93	-2.2	87
COCCCNS(=O)(=O)c1ccc2c(c1)OCCO2	7	/	/	i	0.85	-1.7	95
O=C(NC(Cc1ccccc1)C(=O)O)c1ccc(S(=O)(=O)N2CCCC2)cc1 (configuration not stated)	-8	-30	146	i	0.95	-3.0	99
C/C(=N/NC(=O)c1ccoc1C)c1ccc(N2CCOCC2)cc1	4	9	86	i	0.9	0.2	134
CCN1CCc2nc(NC(=O)Cc3ccc4c(c3)OCCO4)sc2C1	-8	/	/	i	0.94	-0.7	104
C=CCn1c(-c2ccc(C)cc2)nc2ccccc21	-3	-11	123	i	0.89	-0.8	105
COc1cccc(C2CC(C(F)(F)F)n3ncc(C(=O)O)c3N2)c1 (configuration not stated)	-17	/	/	i	1.1	-0.9	100
CCCCn1c(SCC(=O)NCCOC)nc2ccc(N3CCOCC3)cc2c1=O	3	-26	47	i	0.97	0.1	99
CCOC(=O)c1c(O)c(Cl)c(C)[nH]c1=O	5	-100	44	i	0.89	/	111
CC(Sc1ccc(Cl)cc1)C(=O)Nc1ccccc1-c1ccccc1 (configuration not stated)	8	-50	105	i	1.1	-0.1	103
Cc1cc(C)n(CC(O)COc2cccc(OCC(O)Cn3nc(C)cc3C)c2)n1 (configuration not stated)	3	-13	84	i	0.94	-1.1	86
O=C(O)c1ccccc1-n1ncc2c1/C(=C/c1ccc(Cl)cc1)CC2	/	/	/	i	1.1	/	103
COc1ccc(/C=C/C(=O)NCc2ccccn2)cc1	-13	53	81	i	0.95	-0.3	98
COc1ccc(NC(=O)CSc2nnc(-c3ccccn3)n2Cc2ccco2)cc1OC	-2	-20	96	i	0.91	-1.6	98
O=C(CN1C2=NCCN2c2ccccc21)C12CC3CC(CC(C3)C1)C2	-16	-23	44	i	0.8	-0.3	97
CNc1nnc(-c2ccc(OC)cc2)s1	-5	20	117	i	1	/	103
CCOC(=O)c1c(NC(=O)Cn2nc(C(=O)O)c3ccccc3c2=O)sc(CC)c1C	2	/	/	i	1	/	110
Cc1ccc(N2C(=O)c3ccc(N)cc3C2=O)cc1	-10	/	/	i	0.84	-0.5	103
CC(=O)Nc1ccc(C2(O)COc3ccccc3O2)cc1 (configuration not stated)	0	14	101	i	0.94	-0.6	107
NC(=O)C1(N2CCCCC2)CCN(CC(=O)Nc2cc(Cl)ccc2Cl)CC1	5	-58	99	i	0.99	-2.4	97
CC(Nc1oc(-c2ccco2)nc1C#N)c1ccccc1 (configuration not stated)	-7	0	80	i	1	-0.6	105
COc1ccccc1N1CCN(c2ncnc3nc[nH]c23)CC1	12	-86	115	i	0.88	-2.5	105
O=C(COC(=O)c1cccnc1Cl)NCc1cccs1	5	/	/	i	0.94	/	101
O=C(c1cc(Cl)ccc1Cl)N1CCN(c2ccccn2)CC1	-10	18	65	i	0.75	-3.0	102
Cc1ccc(CNC(=O)CSc2nc3ccccc3c3nc(C)nn23)cc1	-4	-127	147	i	1	-0.9	106
O=C(Nc1cccnc1)c1cn(-c2ccccc2)nc1-c1cccs1	-5	8	162	i	0.78	-1.4	84
CCCOc1ccc(N2C(=O)CC(SCCc3nc4ccccc4[nH]3)C2=O)cc1 (configuration not stated)	-3	-21	88	i	0.97	/	87
CNC(=O)c1oc(-c2ccccc2)nc1C	-5	/	/	i	0.99	/	103
O=C(c1ccc(COCC(F)(F)F)o1)N1CCCC1	-4	35	106	i	0.94	/	100
NC(=O)c1cc(Cl)cn(-c2ccccc2)c1=O	-7	/	/	i	0.96	-5.7	93
CCc1sc(C(=O)NCc2ccccc2)cc1C	-5	27	119	i	1	/	102
O=C(N/N=C/c1cc(Cl)cc([N+](=O)[O-])c1O)c1cc(-c2ccccn2)nc2ccccc12	/	/	/	i	0.99	/	95
CCCC(c1nnnn1C1CCCCC1)N1CCN(C2CCCC2)CC1 (configuration not stated)	-11	/	/	i	0.86	-1.4	104
Brc1cccc(OCCn2ccnc2)c1	-1	/	/	i	0.94	-0.8	106
O=S(=O)(NCc1ccc2c(c1)OCO2)c1cccc(S(=O)(=O)N2CCOCC2)c1	0	0	115	i	0.99	-1.5	115
CN(Cc1ccno1)Cc1cn(Cc2ccccc2)nc1-c1ccc2c(c1)OCO2	-2	-43	47	i	1.1	/	112
Cc1ccc(CN2CCN(/N=C\C=C\c3ccccc3)CC2)cc1	-10	/	/	i	1.1	/	142
CCOC(=O)C1CCN(C(=O)Nc2cccc(OC)c2)CC1	/	/	/	i	1.1	/	101
COc1ccc(NC(=O)CC2C(=O)N(c3ccc(OC)cc3)C(=O)N2C(C)C)cc1 (configuration not stated)	5	7	89	i	1.2	-0.2	108
CCS(=O)(=O)c1ccc(O)c(NC(=O)COc2ccc(Br)cc2)c1	4	/	/	i	1	/	107
O=C(Cn1cc(S(=O)(=O)Cc2ccccc2)c2ccccc21)Nc1ccccc1	0	-44	112	i	0.95	-0.1	98
Cc1c(NC(=O)CSCc2c(F)cccc2Cl)c(=O)n(-c2ccccc2)n1C	-8	/	/	i	0.93	/	97
O=C(Nc1cccnc1)c1cc(-c2cccnc2)nc2ccc(Br)cc12	7	11	121	i	0.92	-1.1	104
CCN1CCCC1CNCc1cccc(OC)c1OCc1ccc(F)cc1 (configuration not stated)	-2	-167	58	i	0.79	-1.0	20*
CC(NC(=O)/C(C#N)=C/c1ccco1)c1ccccc1 (configuration not stated)	/	/	/	i	0.96	/	108
CCCCN(CC)C(=O)Cc1c(C(=O)O)[nH]c2ccc(Cl)cc12	-5	28	140	i	0.87	-3.2	103
O=C1CCCN1CC(CN1CCOCC1)Sc1nnnn1-c1ccccc1 (configuration not stated)	-5	10	133	i	1	-1.2	100
Cc1cccn2c(=O)c(/C=C(\C#N)C(N)=O)c(N3CCN(Cc4ccc5c(c4)OCO5)CC3)nc12	-3	/	/	i	0.73	0.8	102
O=S(=O)(c1ccccc1)N1CCN=C1SCc1ccccc1Cl	-1	-29	89	i	0.94	/	103
Cc1nn(-c2ccccc2)c2c1C(c1ccc(F)cc1)C(C#N)=C(N)O2 (configuration not stated)	-5	21	123	i	0.93	-1.4	103

RGS16-Gao, hit marks shown above
SMILES	PKD1 inh	HSV augment primary fold	GALR2 agonist	RGS16-Gao
CCN1CCCC1CNCc1cccc(OC)c1OCc1ccc(F)cc1 (configuration not stated)	-2	0.79	-1.0	20*
